# Screens: PubChem BioAssay, National Center for Advancing Translational Sciences (NCATS)
# 2A StopGo = FMDV 2A StopGo reporter, luciferase signal; human cells with a luciferase reporter of 2A StopGo recoding; control for the full effect not named in the record; Potency, µM (top dose mostly 57.9 µM), for the others: at the top dose signal change, negative = less light; 410,000 compounds, 1.2% hits; AID 1159524; active = well fitted falling curve with a large enough effect; inconclusive = small, poorly fitted or top-dose-only effect; inactive = no such curve, though single readings can be large or run the other way; tested in HEK293T cells; further: on the % scale 0 is the no-effect control and ±100 the full control effect; nearly all actives have a fitted effect of over 45% in size; luciferase light after 4 h
# Cruzain noTriton = cruzain (T. cruzi) inhibition without detergent; AID 1476; purified cruzain, Z-FR-AMC fluorescence, no detergent; 200,000 compounds, 2.3% hits; Potency, µM, for the others: max response, negative = inhibition, hits mostly inhibitors; P25779; active means well fitted curve in the direction sought with a large enough effect; inconclusive means small, poorly fitted or top-dose-only effect, or another doubt; inactive means no such curve, though single readings can be large; an effect the other way counts as inactive or inconclusive;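 further: plate controls were enzyme without inhibitor for no effect and buffer without enzyme for full effect; nearly all actives have a fitted effect of over 40% in size; top concentration of the series not given in the record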
# Target sequence (P25779 123-467 limits assumed): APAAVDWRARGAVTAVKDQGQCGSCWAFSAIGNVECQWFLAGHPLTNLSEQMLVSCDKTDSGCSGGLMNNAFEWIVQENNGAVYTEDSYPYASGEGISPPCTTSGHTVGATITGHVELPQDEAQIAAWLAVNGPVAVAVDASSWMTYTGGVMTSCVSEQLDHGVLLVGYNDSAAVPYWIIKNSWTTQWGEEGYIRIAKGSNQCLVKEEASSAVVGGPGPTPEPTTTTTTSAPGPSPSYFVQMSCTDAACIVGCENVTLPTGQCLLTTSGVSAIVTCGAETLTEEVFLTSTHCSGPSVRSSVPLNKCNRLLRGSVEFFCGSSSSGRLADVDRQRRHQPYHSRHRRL
#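 Purified cruzain at 1.5 nM, pre-incubated 15 min with compound at room temperature in 100 mM sodium acetate pH 5.5, 5 mM DTT, 0.00005% Triton X-100. Reaction started with 2 uM Z-FR-AMC; AMC fluorescence increase over 60 s gives rate.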
# Lassa entry inh = Lassa virus entry inhibition; Lassa virus pseudotype entry inhibition, cell reporter; control for the full effect not named in the record; Potency, µM (series often up to 37.9 µM), inactives show top-dose activity change, negative = inhibition, hits mostly inhibitors; 300,000 compounds, 1.2% hits; AID 540256; active means well fitted inhibition curve with a large enough effect; inconclusive means small, poorly fitted or top-dose-only effect, or effect the other way; inactive means flat fitted curve, though single readings scatter; tested in HEK293 cells; further: on the % scale 0 is the no-effect control and ±100 the full control effect; nearly all actives have a fitted effect of over 50% in size; luciferase read-out
# NS1 inh = blocks influenza NS1 protein function. S. cerevisiae slowed by influenza A NS1, growth recovery by OD600. Potency, µM (doses to about 46.1 µM), without a hit: at the highest dose activity, positive = more growth. 270,000 compounds, 0.4% hits. AID 2326; further: actives are rising curves; nearly all actives have a fitted effect of over 50% in size
#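 Read-out: OD600 growth recovery of NS1-expressing budding yeast. Cells grown overnight at 30C in -URA glucose medium, washed, resuspended and diluted 1:100 in 2% galactose assay medium, pH 6.0. Same strain lacking NS1 served as positive control.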
# SARS PLpro yeast = blocks SARS-CoV papain-like protease in a yeast assay; S. cerevisiae expressing SARS-CoV PLpro, growth rescue; control for the full effect not named in the record; Potency, µM (top dose mostly 32.9 µM), for inactives: top-dose activity, positive = growth rescue; 330,000 compounds, 0.19% hits; further: 0% is about no effect; nearly all actives have a fitted effect of over 55% in size; growth read by luminescence after 48 h
# Marburg entry inh = inhibitors of Marburg virus binding or cell entry; Marburg virus pseudotyped entry inhibition, cell reporter; control for the full effect not named in the record; about a third of the inactives were read at about 46 µM; Potency, µM (series often up to 37.8 µM), for the others: at the highest dose activity change, negative = inhibition, actives largely listed as inhibitors; 300,000 compounds, 1.8% hits; AID 540276; active = well fitted inhibition curve with a large enough effect; inconclusive = small, poorly fitted or top-dose-only effect, or effect the other way; inactive = flat fitted curve, though single readings scatter; tested in HEK293 cells; about a fifth of its hits are not listed in these tables; further: on the % scale 0 is the no-effect control and ±100 the full control effect; luciferase read-out
# Cruzain inh Det = blocks cruzain activity in presence of Triton detergent. purified cruzain, Z-FR-AMC fluorescence, 0.01% Triton. Potency, µM, without a hit: max response, negative = inhibition, usual class: inhibitors. 200,000 compounds, 0.43% hits. AID 1478; active means well fitted curve in the direction sought with a large enough effect; inconclusive means small, poorly fitted or top-dose-only effect, or another doubt; inactive means no such curve, though single readings can be large; an effect the other way counts as inactive or inconclusive;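 further: plate controls were neutral wells for no effect and buffer without enzyme for full effect; nearly all actives have a fitted effect of over 40% in size; top concentration of the series not given in the record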
#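 Read-out: AMC fluorescence (360 nm excitation, 450 nm emission), four reads over 2 min, first-to-third difference used. Conditions: cruzain 1.5 nM, Z-FR-AMC 2 uM, pH 5.5 acetate, 5 mM DTT, 0.01% Triton X-100.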
# RE007 growth inh = less growth of the S. pombe RE007 Vpr strain | S. pombe RE007 Vpr strain, BacTiter-Glo ATP luminescence, 24 h; control for the full effect not named in the record | Potency, µM (titrated, usually from 92.2 µM), without a hit: at the top dose activity change, negative = less growth | 360,000 compounds, 0.21% hits; active = well fitted falling curve with a large enough effect; inconclusive = small, poorly fitted or top-dose-only effect; inactive = no such curve, though single readings can be large or run the other way;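 further: on the % scale 0 is the no-effect control and ±100 the full control effect; nearly all actives have a fitted effect of over 50% in size; the assay follows cell death caused by Vpr and the record does not say whether a fall means rescue or toxicity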
#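 Fission yeast RE007 carrying one integrated HIV-1 vpr copy, seeded at OD 0.01 in PMG+AL medium with 23 nL pinned compound. Grown 24 h at 30 degrees; viability read by BacTiter-Glo luminescence after 5 min.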
# Numbers without * were called inactive; ? = inconclusive; nt = no result given; & = joins results of further samples; [ ] = another dose, or the depositor's remark. Unless noted, the call rests on the fitted dose curve; in most records, active means well fitted rising curve with a large enough effect; inconclusive means small, poorly fitted or top-dose-only effect; inactive means no such curve, though single readings can be large or run the other way. Potency means the concentration at half of the fitted maximal effect.
SMILES,2A StopGo,Cruzain noTriton,Lassa entry inh,NS1 inh,SARS PLpro yeast,Marburg entry inh,Cruzain inh Det,RE007 growth inh
CNC(=O)C(=O)NCC1OCCCN1S(=O)(=O)c1ccc2c(c1)OCCO2 (stereo not given),-4%,nt,9%,-3%,6%,5%,nt,-12%
CC1=NN(c2ccc(F)cc2)C(=O)C1C(c1cccc(O)c1)c1c(C)[nH]n(-c2ccc(F)cc2)c1=O (stereo not given),-25%,27%,14%,19%,-6%,?,-10%,?
COc1cc(OC)nc(NC(=O)CCl)n1,13%,-10%,14%,14%,nt,-1%,1.2%,23%
COCCNC(=O)c1cnn2c(C(F)(F)F)cc(-c3ccc4c(c3)OCO4)nc12,-16%,2%,17%,?,4%,20%,-1.2%,-12%
COc1ccc(CNC(=O)C2CCC(CNS(=O)(=O)c3cccc4cccnc34)CC2)cc1 (stereo not given),-15%,nt,nt,-21%,0%,nt,nt,-10%
CCN(CC)CCC/C(=N\O)C(O)(c1ccccc1)c1ccccc1,-5%,nt,nt,7%,0%,nt,nt,0%
c1coc(-c2nc3nc4ccccc4nc3n2-c2ccc3c(c2)OCCO3)c1,9%,-6%,7%,4%,11%,-14%,-6.6%,9%
C1CCC2(CC1)OCC1(CO2)COC2(CCCCC2)OC1,12%,8%,13%,0%,nt,18%,1.6%,24%
CCc1nc(C)ccc1OCC(=O)NCCCN(C)C,-25%,7%,0%,5%,-8%,-3%,2.1%,-7%
CCOC(=O)C1CCN(S(=O)(=O)c2ccc(C)c(C(=O)NC3CCCCC3)c2)CC1,-18%,nt,10%,-2%,1%,-2%,nt,0%
CCCCC(NC(=O)CCc1c(C)c2cc3c4c(oc3c(C)c2oc1=O)CCCC4)C(=O)O (stereo not given),-1%,nt,nt,15%,1%,nt,nt,9%
CCOC(=O)N1CCN(CC(O)COCc2ccc(OC)c(OC)c2)CC1 (stereo not given),1%,-5%,3%,21%,4%,2%,1.9%,-2%
O=C(Nc1cccn(Cc2c(Cl)cccc2Cl)c1=O)C1CC1,-16%,nt,-19%,-7%,-9%,8%[46.1 µM],nt,21%
Cn1cc(C(=O)NCc2ccc(Cl)cc2)c(=O)c2cc(S(=O)(=O)N3CCOCC3)ccc21,-5%,nt,2%[46.1 µM],-7%,-11%,21%[46.1 µM],nt,0%
Cc1cnn(C(=S)NCc2ccco2)c1,-8%,-15%,1%,-1%,9%,-1%,-4.3%,-12%
Cc1occc1C(=O)Nc1nccs1,11%,-2%,-2%,1%,-6%,3%,0.0%,-19%
Cc1ccc(C(=O)N/C(=C\c2cn(S(=O)(=O)N(C)C)c3ccccc23)C(=O)NCCCn2ccnc2)cc1,46%&81%[activator],2%,1%[46.1 µM],4%,4%,3%&3%[46.1 µM],-3.4%,-3%
O=C(Nc1nnc(-c2ccncc2)s1)C1CCCO1 (stereo not given),15%,-17%,21%,-3%,3%,0%,-10.0%,-20%
CCOC(=O)C1=C(C)OC(N)=C(C#N)C1c1cccs1 (stereo not given),-18%,nt,1%,nt,1%,12%[46.1 µM],nt,-28%
COc1ccc(OC)c(NC(=O)Cn2c(CCC(=O)O)ccc2-c2ccccc2)c1,-6%&-11%,?,22%[46.1 µM],26%,2%,0%[46.1 µM],-8.6%&-6.5%,16%
CCOC(=O)Cc1csc(NC(=O)c2c(O)c3c(n(CC(C)C)c2=O)CCCC3)n1,-17%,nt,-26%[46.1 µM],9%,0%,2%[46.1 µM],nt,-17%
CC(NC(=O)C1CCN(S(=O)(=O)c2ccc3c(c2)oc(=O)n3C)CC1)c1ccccc1 (stereo not given),-13%,-13%,2%[46.1 µM],nt,nt,15%[46.1 µM],0.4%,nt
Cc1ccc(NC(=O)Nc2ccc3oc(C)nc3c2)cc1,-3%,?,-5%,4%,2%,?,-0.7%,3%
COC(=O)C1CCN(Cc2cc(=O)oc3cc(C)c(Cl)cc23)CC1,4%,nt,nt,7%,2%,nt,nt,14%
CCc1cccc(N(C(=O)c2csnn2)C(C(=O)NC(C)(C)C)c2ccccn2)c1 (stereo not given),8%,nt,?,-2%,12%,4%[46.1 µM],nt,34%
CC(=O)N1CCN(C(=O)c2ccc3oc(CCCc4ccccc4)nc3c2)CC1,-13%,nt,nt,-5%,?,nt,nt,-4%
Cc1ccc(C)c(OCc2cc(C(=O)N3CCOCC3)no2)c1,49%[activator],nt,nt,-15%,-5%,nt,nt,-9%
CCn1cc(/C=C(\NC(=O)c2ccc(OC)c(OC)c2)C(=O)NCCCn2ccnc2)c2ccccc21,0%,1%,1%[46.1 µM],nt,nt,-21%[46.1 µM],-7.7%,nt
Cc1[nH]c2ccccc2c1/C=C/c1nc2ccccc2c(=O)n1-c1cccc([N+](=O)[O-])c1,-15%,?,?,15%,8%,?,-6.5%,8%
CCOC(=O)CSc1nnc(Cc2cc(=O)[nH]c(=O)[nH]2)n1-c1ccc(Cl)cc1,-2%,-1%,nt,5%,-5%,nt,4.3%,3%
CCCCn1c(N)c(N(CCOC)C(=O)C2CCCN(C(=O)c3ccc(Cl)cc3)C2)c(=O)[nH]c1=O (stereo not given),0%,nt,8%,nt,-3%,0%[46.1 µM],nt,-7%
O=C(CN(Cc1ccccc1Cl)C(=O)CNS(=O)(=O)c1ccccc1)NCC1CCCO1 (stereo not given),4%,nt,18%,7%,2%,?,nt,18%
COc1ccccc1NC(=O)c1sc2nc(N3CCOCC3)c3c(c2c1N)CC(C)(C)OC3,1%,10%,10%[46.1 µM],nt,nt,-19%[46.1 µM],-0.3%,nt
CCCN1C=CC(=CC=C(C#N)C#N)C=C1,13%,nt,-28%,8%,2%,7%[14.2 µM],nt,-21%
Cc1cc(C)c2c(=O)cc(CSCC(=O)Nc3nnc(C)s3)[nH]c2c1,-10%,-15%,16%[46.1 µM],nt,nt,nt,6.5%,nt
Cc1c(CN2CCC(CO)(Cc3cccc(C(F)(F)F)c3)CC2)c2ccccc2n1C,-26%,nt,?,2%,-2%,?,nt,8%
CC1Sc2ccc(C(=O)Nc3ccccc3OC(F)F)cc2NC1=O (stereo not given),20%,nt,2%,nt,-3%,5%,nt,-3%
COc1ccccc1CC(=O)NN1C(=O)NC2(CCC(C)CC2)C1=O (stereo not given),-12%,nt,-9%,nt,-3%,-11%,nt,7%
CCOC(=O)C1CCCN(c2cc(C)nc3cc(-c4ccc(Cl)cc4)nn23)C1 (stereo not given),-15%,?,-5%,-3%,-24%,-1%,-15%,1%
CCOC(=O)c1c(NC(=O)COC(=O)c2cnccn2)sc(C)c1C,-15%,nt,-1%,nt,1%,-14%,nt,-7%
CC(=C/C(=O)O)/C(=C\c1ccc(Br)o1)C(=O)O,-14%,nt,13%,0%,1%,-4%[46.1 µM],nt,-10%
O=C(COc1ccccc1Cl)NC(=S)Nc1ccc(CN2CCOCC2)cc1,?,-15%,-17%,-7%,-22%,7%,-11%,6%
CCCCOc1ccc(C(=O)NNC(=O)c2cnccn2)cc1OC,-7%,nt,?,nt,-1%,?,nt,33%
CCOC(=O)c1c(C)[nH]c(C)c1S(=O)(=O)N(C)CC(=O)Nc1ccccc1F,29%,nt,nt,2%,11%,nt,nt,5%
COC(=O)c1ccc(NC(=O)CSC2=NCCN2)cc1,?,3%,?,-14%,19%,?,-0.6%,nt
CC(C(=O)N1CCc2ccccc21)N1CCN(S(=O)(=O)c2cccs2)CC1 (stereo not given),-17%,nt,?,nt,0%,-26%,nt,-4%
Cc1ccc(-n2nnc3c(SCC(=O)NCC4CCCO4)ncnc32)cc1 (stereo not given),?,0%,?,-6%,7%,-18%,-1.5%,12%
CCCCc1ccc(NC(=S)N2CCC(O)CC2)cc1,52%[activator],nt,-25%,9%,-1%,20%[46.1 µM],nt,-13%
CCOC(=O)c1nc(-c2ccccc2)oc1N1CCOCC1,-15%,nt,4%[46.1 µM],-3%,0%,?,nt,0%
CCn1c(CN2CCC(C)CC2)nc2cc(NC(=O)c3ccccc3[N+](=O)[O-])ccc21,30%,-19%,-6%[46.1 µM],nt,nt,?,-22%,nt
Cc1cc(OCC(=O)Nc2ccc(C(=O)OC3CCCCC3)cc2)ccc1Cl,-16%,-9%,2%[46.1 µM],nt,nt,nt,-0.4%,nt
CN(C)C=Nc1ncc2c3ccccc3n(CCN(C)C)c2c1C#N,1%,-1%,-19%,-6%,4%,11µM*,-8.4%,8%
CCc1cc2ccc(OC)cc2nc1SCC(=O)NNC(C)=O,-3%,nt,?,4%,0%,9%[46.1 µM],nt,-2%
O=C(CNc1cccc(S(=O)(=O)N2CCCC2)c1)Nc1ccc(F)cc1F,-29%,nt,-7%,nt,-1%,?,nt,?
O=C(NN=Cc1ccc(O)cc1)C(=O)NN=Cc1ccc(O)cc1,7%,nt,26%[46.1 µM],nt,nt,1%[46.1 µM],nt,2%
O=C(CCS(=O)(=O)c1ccccc1)N(Cc1cccnc1)c1nc2c(F)cccc2s1,-14%,15%,?,nt,nt,nt,-3.8%,nt
CC(=O)N1CCc2cc(Br)cc(S(=O)(=O)CCC(=O)N3CCN(c4ccccn4)CC3)c21,-10%,nt,23%[46.1 µM],nt,2%,20%[46.1 µM],nt,5%
COc1ccc(S(=O)(=O)N2CCCCCC2)cc1C(=O)N(C)Cc1cccc(OC)c1OC,-17%,nt,?,nt,1%,?,nt,-1%
CS(=O)(=O)NCc1csc(-c2ccccc2)n1,33%[activator],-5%,8%,3%,4%,14%,4.8%,-11%
CCn1nc(NS(=O)(=O)c2ccc(NC(C)=O)cc2)c2cc3ccccc3nc21,16%,nt,29%[46.1 µM],14%,-1%,?,nt,-3%
# Next part.
SMILES,2A StopGo,Cruzain noTriton,Lassa entry inh,NS1 inh,SARS PLpro yeast,Marburg entry inh,Cruzain inh Det,RE007 growth inh
COc1ccc(Nc2nc(-c3sc(C)nc3C)cs2)cc1,?,nt,nt,-129%,-29%,nt,nt,0%
COc1cccc(NC(=O)CNC(=O)Cn2cnc3sc(C)c(C)c3c2=O)c1,4%,nt,?,6%,11%,-8%[46.1 µM],nt,18%
CC1(C)Cc2nc3sc4c(=O)n(CC(N)=O)cnc4c3cc2CO1,19%,-1%,2%,5%,2%,27%,-2.4%,4%
C/C(=N\N1CCCCCC1)c1c(O)n(-c2ccccc2C)c(=O)[nH]c1=O,-5%,nt,nt,4%,0%,nt,nt,34%
